UUG fidelity: modulators of yeast start codon fidelity, primary screen, whole organism, S. cerevisiae, single point, plate reader | S. cerevisiae UUG-firefly luciferase reporter, luminescence/redox ratio | activity score, % at 18.7 µM | actives 0.13% (n = 350,000) | AID 602363, 2012;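 active = replicate mean at a twofold rise or more, about +100% in these data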;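 note: firefly luciferase made from a UUG start codon reports start codon fidelity; reporter light over untreated wells divided by growth signal over untreated wells; some hits fall short of that in this replicate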
CSC inhib: cancer stem cell viability inhibitors, primary screen, luminescence; AID 2717, 2010; actives 1.1% (n = 300,000); cancer stem cell-like cells viability; inhibition, % at 7.5 µM;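 active = mean at 75% or more and at least half the replicates too; tested in HMLE shEcad cells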;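 note: 0% = median of negative and 100% = median of positive control wells; the first replicate is given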
PABP FP inh: PABP poly(A) RNA binding inhibitors, primary screen, biochemical, fluorescence polarization, uHTS. inhibition, % at 35 µM. actives 1% (n = 290,000). AID 2014, 2009;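 active = 50% or more with normal probe brightness, or confirmed in later tests; about a fifth of its hits are not listed in these tables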;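 note: calls also rest on retests at 20 µM and on dose response follow-up; controls were probe without protein and protein plus probe with vehicle; some compounds called inactive have numbers as strong as hits; many hits fall short of the cut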
MT1-MMP act inh: blockers of MT1-MMP proenzyme processing, primary screen, HT1080 RFP-PRO-GFP cells, GFP/RFP fluorescence | GFP/RFP ratio fluorescence, overnight; percent of plate control window, DMSO zero | GFP/RFP ratio change, % at 20 µM | AID 651647, 2012 | actives 0.061% (n = 360,000) | Matrix metalloproteinase-14 (Homo sapiens), P50281;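 active = GFP/RFP ratio change of at least 30% with cell ATP level not reduced by more than half and red fluorescence within 50% of control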; note: strong numbers were not always called active
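Compound: 20 µM single dose, 1% DMSO / System: HT1080 RFP-PRO-GFP cells / Controls: DMSO and RFP-L50D-GFP cell wells / Read-out basis: GFP/RFP fluorescence ratio / Schedule: overnight compound exposure at 37 °C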
Rce1 inh: yeast Rce1p protease inhibitors, primary screen, biochemical, fluorescence, cell-free homogeneous | CAAX prenyl protease 2 (Saccharomyces cerevisiae (strain ATCC 204508 / S288c)), Q03530 | yeast membranes, quenched prenylated peptide cleavage fluorescence | calls only | actives 0.27% (n = 290,000);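 active = fall in fluorescence gain of 50% or more versus controls, with final raw signal at or below 3038400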;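 note: plate controls were neutral control wells for no effect and wells lacking membranes for full effect; tested at 10 µM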
Target sequence (Q03530 whole entry, looked up): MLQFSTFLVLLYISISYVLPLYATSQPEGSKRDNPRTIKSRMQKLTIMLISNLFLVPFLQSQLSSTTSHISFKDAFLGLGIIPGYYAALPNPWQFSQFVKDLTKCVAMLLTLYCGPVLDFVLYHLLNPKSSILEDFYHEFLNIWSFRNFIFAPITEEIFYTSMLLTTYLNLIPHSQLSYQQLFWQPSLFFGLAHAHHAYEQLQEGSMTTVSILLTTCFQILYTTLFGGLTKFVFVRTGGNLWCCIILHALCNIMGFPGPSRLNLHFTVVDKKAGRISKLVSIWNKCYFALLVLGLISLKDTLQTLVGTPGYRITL
eIF4H inh: human eIF4H binding inhibitors, primary screen, translation initiation inhibitor project, biochemical, uHTS, fluorescence polarization | eIF4H fluorescence polarization binding assay | Eukaryotic translation initiation factor 4H (Homo sapiens), Q15056 | inhibition, % at 35 µM | actives 0.94% (n = 290,000);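 active = 50% or more with normal probe brightness, or confirmed in later tests; about a fifth of its hits are not listed in these tables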;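 note: calls also rest on retests at 20 µM and on dose response follow-up; 0% = protein and probe with vehicle and 100% = probe without protein; strong numbers were not always called active; many hits fall short of the cut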
Env fusion inh: inhibitors of HIV-1 Env-driven cell-cell fusion, primary screen, HeLa-JRFL effector, CEM21 target cells, luciferase | AID 651610, 2012 | actives 1.1% (n = 360,000) | inhibition, % at 12.3 µM;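 active = mean replicate inhibition score of at least 50 and every replicate individually at or above 50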;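 note: 0% = plate neutral controls and 100% = maraviroc near 300 nM; one replicate is shown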
eIF4H inh retest: also measured in eIF4H inh; calls as there; inhibition, %; compound at 20 µM; confirmation average;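 mean of two retest wells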
PABP FP inh retest: further read-out of PABP FP inh, marked with its call; inhibition, %; compound at 20 µM; confirmation repeats;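 mean of two retest wells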
MT1-MMP act inh RFP: second read-out of MT1-MMP act inh, no call of its own (marks repeat the call); RFP signal change, %; measured here: RFP expression control read;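 0 = vehicle wells; hits needed this value within 50% of zero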
Numbers without * were called inactive; i = inactive; · = no result given; + = active, no number; & = joins results of further samples; [ ] = another dose, or the depositor's remark.

SMILES	UUG fidelity	CSC inhib	PABP FP inh	MT1-MMP act inh	MT1-MMP act inh RFP	Rce1 inh	eIF4H inh	Env fusion inh	others
CC(NC(=O)c1cccc2ccccc12)c1ccc2c(c1)CCCC2 (stereo not given)	·	38.3	5.9	-5.8	-9.9	i	94.1	8.4	eIF4H inh retest=-10.5;PABP FP inh retest=9.2
O=C(NCCCN1CCCC1)c1ccc2c(c1)N(Cc1cccc(Cl)c1)C(=O)c1ccccc1S2(=O)=O	-4.9	·	·	1.2	-2.1	·	·	4.1
COc1ccc2c(c1)OCC1=C2CCC2(C)C(=O)CC=C12 (stereo not given)	·	-7.4	44.6	·	·	i	35.5	·
Cc1ccc(C(=O)CSc2nnc(COc3ccccc3)o2)cc1	·	-12.5	-4.0	3.6	2.7	i	-2.3	8.1
Cc1nnc(NC(=O)C2CC(=O)N(c3ccccc3)C2)s1 (stereo not given)	-10.0	6.1	10.1	0.2	1.8	i	5.9	-6.1
O=C(c1ccc(NS(=O)(=O)c2ccc(Cl)cc2)cc1)N1CCOCC1	7.7	-27.1	10.6	-1.7	-1.9	i	7.1	13.2
CCOC(=O)C1(CC2CCCCO2)CCN(S(=O)(=O)c2c(C)nn(C)c2C)CC1 (stereo not given)	-13.5	·	-6.2	3.6	0.8	i	-8.3	-2.6
CSc1ccc(/C=C(/NC(=O)c2ccc(C)cc2)C(=O)Nc2cccc(C)c2)cc1	·	0.2	-7.7	1.5	1.5	i	-1.3	-4.4
CC(C)n1c2ccccc2c2nnc(SCC(=O)Nc3ccccc3C(=O)O)nc21	·	-14.5	-7.1	2.8	5.2	i	1.9	8.2
CCOC(=O)C1(CC2CCCCO2)CCN(Cc2nccn2-c2cccc(C)c2)CC1 (stereo not given)	·	0.6	-13.9	-0.3	2.9	·	-16.4	-12.0
C/C(=N\NC(=O)c1ccccn1)c1ccc(Cl)cc1	-24.7	-0.3	0.4	4.6	4.5	i	-1.7	-50.0
Cc1noc(C)c1S(=O)(=O)NC1CCN(Cc2ccccc2)CC1	1.6	-3.2	38.3	-2.9	3.5	i	24.1	-21.5
O=C(CSc1ncnc2ccccc12)NCCCO	·	-5.5	7.5	1.7	4.8	i	-0.4	·
Cc1ccc(-c2noc(-c3ccccc3C(=O)NCc3ccco3)n2)cc1	·	-1.1	0.0	-3.3	-1.7	i	-9.7	4.7
O=C(O)c1ccc(-c2ccccc2)[nH]c1=O	-8.2	-1.3	-3.7	0.0	4.2	i	6.2	5.0
CCOc1ccc(NC(=S)N2CCCCCC2)cc1	-21.6	-14.3	6.7	4.3	2.2	i	7.5	-2.1
CC(C)[C@@H](C(=O)NCc1ccco1)N1C(=O)N2CCc3c([nH]c4ccccc34)[C@@]2(C)C1=O	18.1	-1.4	6.5	-2.0	-2.9	i	-0.4	·
C#CCN(C[C@H]1[C@H](OC(=O)NCC2CCCCC2)[C@H](OC(=O)NCC2CCCCC2)C[C@@H](C(=O)OC)[C@H]1C(=O)OC)S(=O)(=O)c1ccc(C)cc1	-28.2	·	·	-6.3	-10.8	·	·	-32.3
CN1CCN(c2nc(Nc3ccc(O)cc3)nc3ccccc23)CC1	·	-14.1	12.5	-6.4	-1.3	i	-6.3	-3.9
O=S(=O)(NCc1ccccc1)[C@@H]1CC2C=CC1C2 (stereo not given in full)	-17.1	-9.4	·	-2.1	5.1	·	·	-8.5

The closing 3 entries of the section before are carried over, then new ones follow.
SMILES	UUG fidelity	CSC inhib	PABP FP inh	MT1-MMP act inh	MT1-MMP act inh RFP	Rce1 inh	eIF4H inh	Env fusion inh	others
C#CCN(C[C@H]1[C@H](OC(=O)NCC2CCCCC2)[C@H](OC(=O)NCC2CCCCC2)C[C@@H](C(=O)OC)[C@H]1C(=O)OC)S(=O)(=O)c1ccc(C)cc1	-28.2	·	·	-6.3	-10.8	·	·	-32.3
CN1CCN(c2nc(Nc3ccc(O)cc3)nc3ccccc23)CC1	·	-14.1	12.5	-6.4	-1.3	i	-6.3	-3.9
O=S(=O)(NCc1ccccc1)[C@@H]1CC2C=CC1C2 (stereo not given in full)	-17.1	-9.4	·	-2.1	5.1	·	·	-8.5
CC(C)(C)OC(=O)N[C@@H](C(=O)OC(C)(C)C)c1ccc(Br)cc1	-10.9	-12.5	·	-7.8	-4.8	·	·	3.5
OCCNc1nc2ccccc2nc1NCCO	-6.4	-7.0	9.5	1.2	0.9	i	-0.8	1.8
COc1ccc(OC)c(/C=N/NC(=O)Cn2ccnc2C)c1	·	-3.1	2.3	0.0	4.9	+	-1.7	0.9
O=C(Nc1nnc(CCN2CCCCC2)s1)c1ccccc1Cl	·	-10.9	-3.6	1.4	2.3	i	-2.5	-0.8
O=C(CN1CCN(C(c2ccccc2)c2ccccc2)CC1)N1CCOCC1	-19.5	4.6	36.0	-4.5	-3.2	i	10.1	·
CC(CCc1ccccc1)NC(=O)c1cccc([N+](=O)[O-])c1 (stereo not given)	·	2.0	6.6	-0.5	1.4	i	-2.7	20.5
Cc1ccc(OCCSc2ncnc3sc(C)c(C)c23)cc1C	-7.7	20.0	-2.9	-0.8	-1.4	i	-4.5	-5.1
CC(c1nc2ccccc2[nH]1)N(C(=O)Cc1csc2ccccc12)c1cccnc1 (stereo not given)	-37.5	·	·	-1.3	-4.0	·	·	-30.0
CCN1CCN(C(=O)c2cccc(OC3CCN(S(=O)(=O)N(C)C)CC3)c2)CC1	3.8	-7.7	5.0	-0.9	-1.7	i	-10.9	·
Cc1ccc(N=Nc2ccc(O)c(P(=O)(c3ccccc3)c3ccccc3)c2)cc1	·	14.3	2.7	0.9	-2.9	i	-9.3	3.1
CCOC(=O)C1=C(N)c2ccccc2CC1C(C)C (stereo not given)	-8.8	1.7	-6.8	-1.4	-1.6	i	-4.4	·
Cc1ccc(NC(=O)COC(=O)[C@H](C)N2C(=O)C3CC=CCC3C2=O)cc1S(=O)(=O)N(C)C (stereo not given in full)	·	3.7	-2.2	0.9	-1.8	i	2.1	-1.0
COc1ccc(NC(=O)Nc2cccc3c2O[C@H](CN(C)C(=O)Nc2ccc(OC)cc2)[C@@H](C)CN([C@H](C)CO)C3=O)cc1	1.3	-14.1	·	4.6	2.5	·	·	-19.3
CNC(=O)c1nnn(Cc2ccccc2)c1NC(C)=O	-7.9	0.2	-3.0	1.6	-3.7	i	-5.7	-31.5
O=C(NCCCl)Nc1cc([N+](=O)[O-])ccc1Cl	·	-30.3	7.5	-2.3	2.1	i	-8.4	-10.3
NC(=O)c1ccccc1NC(=O)CSc1nc2c(c(=O)[nH]1)CCCC2	-5.5	4.1	11.7	3.6	2.4	·	3.5	-37.1
COc1cc(OC)nc(C(NC(=O)C2CCN(Cc3ccc(N(C)C)cc3)CC2)c2ccc(F)cc2)n1 (stereo not given)	-2.0	·	·	-2.2	1.2	·	·	-17.3
COc1ccc(C(=O)CSc2ccc(-c3ccc(C)cc3)nn2)cc1	-14.3	1.0	-3.4	3.3	-5.7	i	-1.7	-18.2
Cn1c(=O)c2c(ncn2CCOc2ccc(F)cc2)n(C)c1=O	-10.0	2.9	1.4	-4.1	-18.4	i	-3.0	27.2
CCc1ccc(OCc2nnc(SCC(=O)NCc3ccco3)o2)cc1	-13.0	-21.5	-6.5	3.9	-2.4	i	-6.6	9.5
Cc1ccc(-c2c(CC(=O)O)c(C)nc3sc4c(c23)CCCC4)cc1	-4.2	-10.2	5.7	-1.6	3.2	i	-12.0	-11.5
CCN1CCN(C(=O)c2nn(-c3ccc(OC)cc3)c(=O)c3c2c2ccccc2n3C)CC1	·	-8.3	-0.5	4.7	5.7	i	1.5	-11.6
Cc1[nH]c2c([N+](=O)[O-])cccc2c1C	·	-6.1	10.1	-2.6	1.4	i	6.3	-2.9
COc1ccc(CN2C(=O)C(CC(=O)NCc3cccs3)CC(C(=O)N(C(C)C)C(C)C)=C2C)cc1 (stereo not given)	-7.1	·	·	4.3	1.3	·	·	15.0
CC(C)NC(=O)C(Sc1ccccc1)c1ccccc1 (stereo not given)	-5.0	-7.4	-5.0	0.8	-9.5	i	2.3	1.2
COCCNC(=O)CN1CCC(NC(=O)Nc2ccc(C(F)(F)F)cc2)CC1	-11.3	-2.6	-4.6	-3.2	-2.8	i	-2.3	-9.3
Cc1ccc(S(=O)(=O)NC(C(=O)Oc2ccc3c(C)c(Cl)c(=O)oc3c2)c2ccccc2)cc1 (stereo not given)	8.4	-2.8	-1.7	4.5	-0.7	i	-4.6	-69.2
Cc1noc(C)c1S(=O)(=O)Nc1ccc(C(=O)N2CCCCC2)cc1	·	-9.2	1.5	6.1	3.3	i	11.9	·
COc1ccc(C(=O)NCc2ccon2)cc1OC1CCN(C(C)C)CC1	3.6	17.6	4.7	-0.5	5.1	i	-12.5	-10.6
N#C/C(=C\c1c[nH]c2ccccc12)C(=O)NC1CC1	-19.2	-6.5	-1.2	4.2	-1.2	i	-6.9	-96.7
Cc1nn(-c2ccccc2)c(C)c1NC(=O)c1ccc(S(=O)(=O)N2CCCC2)cc1	3.9	1.6	5.9	0.4	-0.7	i	-3.0	-27.3
CCN1CCC(C(=O)NC(c2ccc(F)cc2)c2ncccc2C)CC1 (stereo not given)	-0.3	·	·	0.7	-2.0	·	·	12.1
Cc1cc(C=C2C(=O)c3ccccc3C2=O)c(C)n1-c1ccc(C(=O)O)cc1	·	4.4	27.1	1.1	2.1	i	30.4	-1.1
CC(C)C(=O)N1CCCC1(C)C(=O)Nc1cccc(Oc2ccccc2)c1 (stereo not given)	21.8	·	·	4.9	1.5	·	·	2.3
COc1cc(/C=N\NC(=O)Cn2nnc3ccccc32)cc(OC)c1OC	·	10.7	4.5	-0.5	4.4	i	4.9	·
O=C1CC(NCc2ccccc2)C(=O)N1c1ccc(F)cc1 (stereo not given)	·	·	-6.8	-0.8	-3.0	·	-5.7	4.4
OC1(c2ccc(F)cc2)CCN(Cc2cccnc2)CC1	-9.6	-5.5	4.1	-2.9	2.5	i	6.0	6.2
O=C(C1CCN(S(=O)(=O)c2cccnc2)CC1)N1CCN(c2ccc(Cl)cc2)CC1	·	0.9	-4.2	-15.7	-22.2	i	-11.9	1.2
CC(=O)c1c(C)[nH]c(C(=O)OCC(=O)NCC(C)C)c1C	·	-11.3	-2.7	0.1	-6.2	i	1.3	7.2
COc1ccccc1NC(=O)c1cc(OC)c(OC)cc1[N+](=O)[O-]	-6.8	0.4	23.7	-4.4	-2.5	i	-6.8	-1.3
CC(=O)n1cc([C@H]2C=C(C(=O)Nc3ccccc3)O[C@@H](OCCCCO)C2)c2ccccc21	-2.3&-6.8	-6.3	-5.9	-2.2	1.0	i	-5.1	-4.5[16.7 µM]
O=C(CN1C(=O)NC2(CCOc3ccccc32)C1=O)Nc1ccc2c(c1)OCCO2 (stereo not given)	13.3	0.6	-0.2	4.4	2.8	i	-11.7	-231.1

Part of the list above in order of formula weight, lowest first.
SMILES	UUG fidelity	CSC inhib	PABP FP inh	MT1-MMP act inh	MT1-MMP act inh RFP	Rce1 inh	eIF4H inh	Env fusion inh	others
COc1ccc2c(c1)OCC1=C2CCC2(C)C(=O)CC=C12 (stereo not given)	·	-7.4	44.6	·	·	i	35.5	·
CCc1ccc(OCc2nnc(SCC(=O)NCc3ccco3)o2)cc1	-13.0	-21.5	-6.5	3.9	-2.4	i	-6.6	9.5
CC(C)(C)OC(=O)N[C@@H](C(=O)OC(C)(C)C)c1ccc(Br)cc1	-10.9	-12.5	·	-7.8	-4.8	·	·	3.5

These rows are one share of the data. The share of hits here may be higher or lower than overall.
